Source: PubChem
NPYLR7 ag: mosquito NPYLR7 agonism. 270,000 compounds, 0.15% hits. HEK293T NPYLR7/Galpha15, GCaMP6s calcium fluorescence. activation, % at 10 µM. AID 1259423; in the data active = activation above about 40%;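 note: 0% = vehicle and 100% = reference agonist at the receptor; some compounds past the cut are filed as inactive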
NPYLR7 ag max-min: also measured in NPYLR7 ag; calls as there; activation, %; measured here: Max-Min RFU normalised activation; some inactives read as strong as hits;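 span of the calcium signal over five minutes; 0% = vehicle and 100% = native peptide agonist; compound fluorescence can raise it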
Starred values were filed as active, the others as inactive; & = joins results of further samples.

cpd	Compound	NPYLR7 ag	NPYLR7 ag max-min
1	CC(Sc1n[nH]c(-c2ccccc2Br)n1)c1cccnc1 (centres undefined)	-2	-5
2	CCOC(=O)c1ccc(NC(=O)CSc2nnc(NC(=O)c3c(F)cccc3F)s2)cc1	-8	2
3	CC(C)CNC(=O)C(NC(=O)CC(C)C)C1CCN(C(=O)Cc2ccccc2)CC1 (centres undefined)	-4	10
4	Cc1ccc(-n2c(SCc3nc(C(=O)N4CC(C)OC(C)C4)cs3)nnc2-c2ccccc2Cl)cc1 (centres undefined)	26	19
5	O=C(O)c1cccnc1Oc1ccc(Br)cc1	-5	-4
6	C=CCn1c(O)c(N=NC(=O)c2ccccn2)c2ccccc21	-15	-17
7	Cc1nnc(NCCCN2CCc3ccccc32)c(C#N)c1C	0	-1
8	CCCc1nc(N2CCCN(S(=O)(=O)c3ccc(NC(C)=O)cc3)CC2)c2c(C)nn(-c3ccccc3)c2n1	14	17
9	CCCS(=O)(=O)N1CCN(c2nc(-c3ccccc3)nc(COC)c2Cc2ccccc2F)CC1	1	5
10	O=C(NC(c1ccc(Cl)cc1)c1ccccn1)C1CCN(Cc2ccncc2)CC1 (centres undefined)	4	-11
11	C[C@@]12CO[C@H](c3ccccc3)C[C@@H]1C[C@@H](N1CCN(S(=O)(=O)c3ccccc3)CC1)C2	-2	0
12	CC(NC(=O)c1ccc2c(c1)nnn2C)c1ccccc1-n1cccn1 (centres undefined)	23	7
13	O=C(O)c1cc(-c2ccccc2)c(C(F)(F)F)s1	0	-3
14	COCCCN1C(=O)C(=Cc2c(NCc3ccco3)nc3c(C)cccn3c2=O)SC1=S	8	7
15	Cc1ccc(Cl)c(OC2CC3CCC(C2)N3C(=O)c2ccc(CSCc3ccccc3C)cc2)c1 (centres undefined)	6	6
16	Cc1ccc2c(c1)c(C1CCN(S(=O)(=O)c3ccc(S(C)(=O)=O)cc3)CC1)cn2C	-10	-5
17	CCC(C)n1c(C)c(C)n2c3c(=O)n(CCOC)c(=O)n(C)c3nc12 (centres undefined)	-1	-5
18	CCCc1ccc(S(=O)(=O)N(C)CCCN2c3ccccc3CCc3ccccc32)cc1	-8	-13
19	COc1ccc(C2CCCN2C(=O)c2ccc(Cn3cncn3)cc2)cc1 (centres undefined)	-1	-4
20	Cc1ccc(NC(=O)c2cccn(OCc3ccccc3)c2=O)c(C)c1	0	16
21	COc1ccc(OC)c(NC(=O)CC(=O)NCc2ccc3c(c2)OCO3)c1	-2	-7
22	Cc1ccc(NC(=O)CSc2ncc(S(=O)(=O)c3ccccc3)c(=O)[nH]2)cc1C	-8	-13
23	COc1ccc(/C=C/C(=O)NCCc2csc3nc(-c4ccc(C)cc4)nn23)cc1OC	2	0
24	COc1cccc(Cl)c1-c1ccc2oc(C)nc2c1	5	1
25	CN(CCC1CCCCO1)C(=O)c1cc(Cn2cnc3ccccc32)on1 (centres undefined)	2	2
26	C#Cc1ccc(NC(=O)C2(C)CCN2C(=O)CCc2ccccc2)cc1 (centres undefined)	8	8
27	Cc1cc(C)n(-c2nnc(C)n2/N=C\c2cc(Br)ccc2OCc2ccccc2)n1	-2	-3
28	CCc1nc(NC(=O)COc2ccc(C#N)cc2)sc1C	5	3
29	O=C(CNC(=O)c1cccc(Cl)c1)Nc1ccc2c(c1)CCC2	2	1
30	CC1(Cc2ccc(OC(F)(F)F)cc2)C(=O)Nc2c(Cl)ccc(Cl)c21 (centres undefined)	4	5

Some of these compounds in order of SMILES length, lowest first:
cpd	Compound	NPYLR7 ag	NPYLR7 ag max-min
6	C=CCn1c(O)c(N=NC(=O)c2ccccn2)c2ccccc21	-15	-17
9	CCCS(=O)(=O)N1CCN(c2nc(-c3ccccc3)nc(COC)c2Cc2ccccc2F)CC1	1	5
11	C[C@@]12CO[C@H](c3ccccc3)C[C@@H]1C[C@@H](N1CCN(S(=O)(=O)c3ccccc3)CC1)C2	-2	0

Entries of single compounds, looked up by structure. Values in the order: NPYLR7 ag | NPYLR7 ag max-min
`O=C(NC(c1ccc(Cl)cc1)c1ccccn1)C1CCN(Cc2ccncc2)CC1` (centres undefined) reads 4 | -11
`O=C(O)c1cc(-c2ccccc2)c(C(F)(F)F)s1` reads 0 | -3
`C=CCn1c(O)c(N=NC(=O)c2ccccn2)c2ccccc21` reads -15 | -17

Additional records:
cpd	Compound	NPYLR7 ag	NPYLR7 ag max-min
31	CCOC(=O)C1CCN(C2CCN(c3ccc(NC(=O)CCc4ccccc4)cc3)CC2)CC1	3	0
32	O=C(NCCn1nc(-c2ccc(Cl)cc2)ccc1=O)c1ccc(I)cc1	-2	-3
33	O=C(O)C1C2CC=CC2c2cc(Br)cc3c2N1CC1CC=CC31 (centres undefined)	-1	8
34	Cc1cc(C)cc(NC(=O)c2cc(C)c(C)c(S(N)(=O)=O)c2)c1	2	1
35	CC(CC(O)c1ccco1)NC(=O)/C=C/c1cccc(Cl)c1 (centres undefined)	-1	-4
36	Cc1c(C(=O)Nc2cccc(C(=O)N(C)C)c2)c(=O)[nH]c2ccccc12	-2	33
37	Cc1nc(C)c(-c2cccc(C(=O)O)c2)s1	1	-2
38	COc1ccc2nc(-c3cccc(NC(=O)C4CCCCC4)c3)cn2n1	-7	-12
39	OCCC1CN(Cc2ccc(F)cc2)CCN1Cc1ccc(F)c(F)c1 (centres undefined)	-1	-4
40	Cc1cccc(-c2ccc(C(=O)N3CCCCC3CCn3cccn3)cn2)c1 (centres undefined)	3	-2
41	Cc1ccc(CCNC(=O)C2CCC(=O)N(CC3CCCCC3)C2)s1 (centres undefined)	-1	-5
42	C/C=C(/C)C(=O)O[C@@H]1[C@H](OC(C)=O)[C@@]2(CO)C(CC1(C)C)C1=CCC3[C@@]4(C)CC[C@H](O[C@@H]5O[C@H](C(=O)O)[C@@H](O[C@@H]6O[C@H](CO)[C@@H](O)[C@H](O)[C@H]6O)[C@H](O)[C@H]5O[C@@H]5O[C@H](CO)[C@@H](O)[C@H](O)[C@H]5O)[C@](C)(CO)C4CC[C@@]3(C)[C@]1(C)C[C@H]2O (some centres undefined)	-4	-14
43	O=C(c1ccc(N2CCC(NCC3(c4ccccc4)CCCC3)CC2)cc1)N1CCCC(CO)C1 (centres undefined)	4	2
44	CCCCCN=C(N)N/N=C\c1c[nH]c2ccc(OC)cc12	-9&56&0	-19&26&3
45	Cc1nn2c(-c3cccc(F)c3)cc(C(=O)O)nc2c1-c1ccccc1	-6	-2
46	CCOc1ccccc1C(=O)Nc1ccc(N2CCN(C(=O)c3cc(C)oc3C)CC2)nc1	23	14
47	COC(C)(C)CC(C)NCc1cccc(-n2cccn2)c1 (centres undefined)	-20	-20
48	COCCCNCc1csc(COc2ccccc2)n1	18	24
49	O=C(c1ccc(Cl)cc1)N1CCSC12C(=O)N(Cc1c(F)cccc1F)c1ccccc12 (centres undefined)	8	10
50	CCCCOc1ccc(C(=O)Nc2nnc(C)s2)cc1	-7	-10
51	Cc1cc(C)c(C(=O)NCC2CCN(Cc3cccs3)CC2)c(C)c1	-10	-12
52	O=C(CNC(=O)c1ccc2c(c1)OCO2)NCCc1nc2ccccc2[nH]1	21	8
53	COc1ccc(OC)c(S(=O)(=O)N2CCC(n3c(=O)[nH]c4ccccc43)CC2)c1	-7	-14
54	CCC1=NN2C(=N)/C(=C/c3cccs3)C(=O)N=C2S1	-2	-3
55	CCOCCn1cc(C2CCN(S(=O)(=O)c3ccccc3C(F)(F)F)CC2)c2ccccc21	30	17
56	N#Cc1cc(Oc2cccc3cccnc23)nc2ccccc12	2	0
57	CN1CCN(/N=C\c2c(C(F)(F)F)[nH]n(-c3nc4ccccc4s3)c2=O)CC1	-4	-14
58	COC(=O)C(C)(Cc1ccccc1)NC(=O)c1ccc(-n2nc(-c3ccc(OC)cc3)cc2N)cc1 (centres undefined)	6	1
59	CNC(=O)c1cccc(N(C)CC(=O)Nc2c(C)cc(C)cc2C)n1	0	-2
60	CCOC(=O)C1(Cc2ccc(Cl)cc2)CCN(CC(O)CO)CC1 (centres undefined)	5	-1
61	O=C(/C=C/c1cccc(F)c1)NCC1(O)CCSCC1	5	5
62	O=C(CC1SC(=Nc2ccccc2)N(c2ccccc2)C1=O)Nc1ccc(N2CCCCC2)cc1 (centres undefined)	-13	-2
63	CCC(NC(=O)CCc1nc2cc(S(=O)(=O)N(C)C)ccc2n1CC)c1ccc(C)cc1 (centres undefined)	2	0
64	O=C(NCc1ccc2sccc2c1)c1c(OCc2cccnc2)nn2ccsc12	-4	-7
65	CCOC(=O)c1c(C)nn(-c2ccc(C(=O)Nc3cccc(Cl)c3)cc2)c1C	1	5
66	C/C(=N/O)c1ccc2c3ccccc3n(C)c2c1	1	0
67	N[C@@H]1CC[C@@H](NC(=O)c2ccnc(-n3cnnc3)c2)C1	1	-6
68	COc1ccc(CC2(CO)CCN(c3cnc4ccccc4n3)CC2)cc1	-2	-1
69	O=C(c1ccc(-c2cccc(Cl)c2)s1)N1CC=C(c2ccccc2)CC1	24	15
70	CCCCSCC(=O)Nc1cc(C(=O)NC)ccc1C	8	6
71	NC(=O)c1ccc(-c2ccc(F)c(CO)c2)cc1	12	7
72	COc1cc2c(cc1OC)-c1c(oc3cc(O)cc(O)c3c1=O)CO2	20	14
73	COc1ccc(Cl)cc1S(=O)(=O)N1CCN(c2cccc(C)c2C)CC1	4	1
74	O=C1NC2(Nc3sc4c(c31)CCCC4)C(=O)Nc1ccccc12 (centres undefined)	-1&-5	-4&-4
75	O=C(NCc1cccc(N2CCOC2=O)c1)c1cc2c(s1)CCCCC2	9	7
76	CCc1nc2c(OCc3ccc(C#N)cc3)cccn2c1N(C)C(=O)c1ccc(C)cc1	-20	8
77	CC(C)CN(CC(=O)Nc1cc(-c2ccccc2)nn1-c1ccc(F)cc1)C(=O)COCc1ccccc1	-4	-6
78	CCCc1c(C(=O)N2CCCC(C(=O)OCC)C2)cnn1-c1ccc([N+](=O)[O-])cc1 (centres undefined)	19	21
79	CCCc1nc(C(=O)NCc2ccc3c(c2)n(C)c(=O)n3C)cs1	8	7
80	Clc1ccc2c(NCc3ccco3)nc(Cc3ccccc3)nc2c1	0	4
81	CCOc1ccccc1N1CC(C(=O)Nc2ccc(Br)cc2F)CC1=O (centres undefined)	0	-1
82	COc1ccc2[nH]c3c(c2c1)CCN(C(=O)c1cccc(OC(C)=O)c1C)C3c1ccc(-c2ccccc2C(F)(F)F)o1 (centres undefined)	-2	-2
83	CC(C)C1CN(CC(=O)Nc2nccs2)CCC(=O)N1CC1CC1 (centres undefined)	-1	2
84	O=C(NCC1CCCO1)c1ccccc1NS(=O)(=O)c1cc(F)ccc1F (centres undefined)	-3	-5
85	CCOC(=O)C1CCN(C(=O)c2cccc(CSc3nc(C)cc(N4CCN(c5ccc(OC)cc5)CC4)n3)c2)CC1	11	13
86	COc1cccc(CC2(CO)CCCN(Cc3ccncc3)C2)c1 (centres undefined)	-1	5
87	O=C(COc1ccc(F)cc1)N1CCN(c2ccc3nnc(-c4ccco4)n3n2)CC1	3	8
88	COCCNCC(=O)N(Cc1ccc2c(c1)OCO2)Cc1sccc1C	-7	-16
89	COC(=O)CNC(=O)c1csc(-c2cc3ccccc3n2C)n1	0	-2
90	Cc1cc(C(=O)CSc2nnc(C)n2C2CCCCC2)c(C)n1C	-2	4

Quoted from the listing.
In NPYLR7 ag, no. 83 reads -1
In NPYLR7 ag, no. 76 reads -20

The listing continues.
cpd	Compound	NPYLR7 ag	NPYLR7 ag max-min
91	O=C(CSc1nc2sc3c(c2c(=O)[nH]1)CCCC3)N1CCCCC1	2	3
92	O=C(CSc1nccn(-c2ccc(F)c(Cl)c2)c1=O)NCCc1ccccc1	-3	-1
93	CC(=O)Nc1cc(-c2ccccc2)nn1-c1ccc(C(=O)Nc2ccc(C(C)(C)C)cc2)cc1	-9	-11
94	Cc1ccc(S(=O)(=O)N2CCC(C(=O)N(Cc3ccc(F)cc3)C3CC3)CC2)c(C)c1	7	-1
95	CCc1nnc(CN(C(=O)c2ccccc2N2CCCC2)C(C)C)o1	9	4
96	Cc1ccc(-c2nc(C(N)=O)c3[nH]c(=O)n(-c4ccc5c(c4)OCO5)c3n2)o1	-6	-7
97	COc1ccc(C(=O)N2CC(=O)N(CC(O)C(F)(F)F)CC(C)(C)C2)cc1 (centres undefined)	1	10
98	CCN(CC)S(=O)(=O)N1CSCC1C(=O)N1CCCC1 (centres undefined)	1	1
99	CCCc1ncc(C[n+]2ccccc2C)c(N)n1	-11&-5&-6&-5	-14&-9&-19&-8
100	N#CC1C(=N)SC2c3ccccc3CCC12 (centres undefined)	8	2
101	CCOC(=O)[C@@H]1[C@@H](O)C(=O)NC12CCN(C(=O)c1csc(-c3cccs3)n1)CC2	23	23
102	CCC(NCC(=O)Nc1ccc(Cl)c(OC)c1)c1ccnn1C (centres undefined)	-2	-6
103	CCn1c(=O)c2ccccc2n(CC(=O)NC(c2ccc(F)cc2)C2CCCC2)c1=O (centres undefined)	3	2
104	Cc1nc2cc(OCc3cc(C(=O)N4CCn5c(C)ccc5C4C)no3)ccc2s1 (centres undefined)	6	1
105	CC[C@@]1(C(=O)O)C[C@H](C(=O)N2CC=CCC2)[C@H](c2ccc(OC)cc2)N1C	4	3
106	Cc1ccc(/C=N\n2c(=O)c(C(C)(C)C)nn3cnnc23)cc1	-2	-5
107	CCOC(=O)[C@@H]1CCCC[C@@H]1NC(=O)c1ccc(-n2nc(C)c(CC)c2C)cc1	-9	-15
108	CCOc1ccc(-c2nnc3ccc(SCC(=O)Nc4ccc(C)cc4)nn23)cc1	16	13
109	Cc1cc(C(=O)N2CCOC(c3ccccc3)C2)cc(Cl)n1 (centres undefined)	-13	2
110	CCC(NCc1cn[nH]c1-c1ccc(C)c(C)c1)c1ccc(F)cc1 (centres undefined)	6	0
111	Cc1nnc(SCc2ccccc2Cl)[nH]c1=O	24	31
112	COc1cc(C(=O)NCCSCc2ccco2)ccc1OC(C)C	9	-1
113	CCNC(=O)c1cc(Oc2ccc(C)cc2Br)ccn1	-2&-3	-4&-5

Some of the compounds tested; rates above refer to the full screens.
